VACV Venus inh – inhibitors of vaccinia virus (Venus reporter) | AID 720580 | Potency, µM (doses to about 36.5 µM), for inactives: at the highest dose activity change, negative = inhibition, hits mostly inhibitors | Vaccinia virus Venus reporter expression, fluorescence | hit rate 0.46% among 330,000; active means well fitted inhibition curve with a large enough effect; inconclusive means small, poorly fitted or top-dose-only effect; inactive means no such curve, though single readings can be large or run the other way; tested in A549 cells; note: nearly all actives have a fitted effect of over 30% in size; inactives centre near -10
VACV mCherry inh – vaccinia inhibition (mCherry reporter). Vaccinia virus mCherry reporter infection, fluorescence; about a quarter of the inactives have no number. Potency, µM (series often up to 36.5 µM), without a hit: at the top dose activity change, negative = inhibition, usual class: inhibitors. hit rate 0.63% among 310,000. AID 720579; active = well fitted inhibition curve with a large enough effect; inconclusive = small, poorly fitted or top-dose-only effect; inactive = no such curve, though single readings can be large or run the other way; tested in A549 cells; note: nearly all actives have a fitted effect of over 35% in size; inactives centre near -10
Starred values were filed as active, the others as inactive; & = joins results of further samples; [ ] = another dose, or the depositor's remark. % is set by controls: 0 for no effect and ±100 for the full control effect; potency is the fitted concentration of half-maximal effect.

What do the screens show for `CO/N=C(/CS(=O)c1ccc(Br)cc1)c1ccc(OC)cc1` (configuration not stated)?
VACV Venus inh: -10.9%

What do the screens show for `CCOc1ccccc1C(=O)NCC(=O)NNC(=O)c1csc(N2CCOCC2)n1`?
VACV Venus inh: -18.6%; VACV mCherry inh: inactive

How did O=C(CNC(=O)c1ccco1)NNC(=O)c1n[nH]c(=O)c2ccccc12 do in these assays?
VACV Venus inh: 10.3%; VACV mCherry inh: -12.4%

Results for O=C(CCS(=O)(=O)c1ccccc1)N1CCN(c2ccccc2F)CC1 ?
VACV Venus inh: -10.4%; VACV mCherry inh: -18.5%

How did Cc1ccc2nc(-c3ccc(N4C(=O)CC(N5CCN(CCO)CC5)C4=O)cc3)sc2c1 (configuration not stated) do in these assays?
VACV Venus inh: -18.9%; VACV mCherry inh: -12.0%

What do the screens show for `Cc1cc(C)cc(NC(=O)CCC(=O)N2CCSc3ccccc32)c1`?
VACV Venus inh: -9.6%&-26.9%; VACV mCherry inh: -13.0%

What do the screens show for `Cc1ccc(S(=O)(=O)N2CCC(=O)N(C(COCc3ccccc3)C(C)C)CC2)cc1` (configuration not stated)?
VACV Venus inh: -17.6%; VACV mCherry inh: inactive

What do the screens show for `CCN(CC)CCn1c2c(c(SCC(=O)Nc3ccc(C(C)C)cc3)nc1=O)CCC2`?
VACV Venus inh: -10.7%; VACV mCherry inh: inconclusive

What do the screens show for `O=C(Nc1nnc(-c2ccncc2)o1)C1CCCCC1`?
VACV Venus inh: -15.0%; VACV mCherry inh: -5.9%

What do the screens show for `CC(C)C[C@H]1CN(CCCC[C@H]2CNC(=O)C(=O)N2Cc2ccccc2)C(=O)C(=O)N1CCc1ccccc1`?
VACV Venus inh: -2.8%; VACV mCherry inh: -1.7%

How did CCOC(=O)CSc1nc2sc3c(c2c(=O)n1Cc1ccccc1)CC(C(C)C)OC3 (configuration not stated) do in these assays?
VACV Venus inh: 6.8%; VACV mCherry inh: 2.0%

How did C=CCn1c(-c2ccccn2)n[nH]c1=S do in these assays?
VACV Venus inh: 2.9%; VACV mCherry inh: 9.5%

What do the screens show for `COc1ccccc1CNC(=O)C1CCN(S(=O)(=O)c2ccc3c(ccn3C)c2)CC1`?
VACV Venus inh: -9.1%; VACV mCherry inh: -9.4%

How did COc1cc([N+](=O)[O-])ccc1NC(=O)COC(=O)C=C(C)C do in these assays?
VACV Venus inh: -18.3%; VACV mCherry inh: inactive

What do the screens show for `COc1cccc(NC(=O)Cn2c(=O)cc(C)c3c(C)nn(-c4cccc(F)c4)c32)c1`?
VACV Venus inh: 1.2%; VACV mCherry inh: -7.7%

What do the screens show for `CN(C(=O)c1cccc(NC(=O)Cc2ccc([N+](=O)[O-])cc2)c1)C1CCCC1`?
VACV Venus inh: inconclusive; VACV mCherry inh: inconclusive

What do the screens show for `Cc1ccc(-n2c(=O)c3c4c(sc3n3c(C)nnc23)COC(C(C)C)C4)cc1` (configuration not stated)?
VACV Venus inh: -12.7%

Results for COC(=O)C(Cc1ccccc1)NC(=O)C12CC3CC(CC(C3)C1)C2 (configuration not stated) ?
VACV Venus inh: -15.1%; VACV mCherry inh: 1.3%

How did CSCCC(NS(=O)(=O)c1ccc2c(c1)OCCO2)C(=O)NCCc1ccccn1 (configuration not stated) do in these assays?
VACV Venus inh: -13.1%; VACV mCherry inh: -14.3%

Results for COc1ccccc1-c1cccc(-c2nc(C(=O)Nc3nccs3)cc3c2[C@H](CCO)N(C(C)=O)C3)c1 ?
VACV Venus inh: -13.2%; VACV mCherry inh: -20.8%

The last 4 compounds of the section before come first, to join the parts:
What do the screens show for `Cc1ccc(-n2c(=O)c3c4c(sc3n3c(C)nnc23)COC(C(C)C)C4)cc1` (configuration not stated)?
VACV Venus inh: -12.7%

Results for COC(=O)C(Cc1ccccc1)NC(=O)C12CC3CC(CC(C3)C1)C2 (configuration not stated) ?
VACV Venus inh: -15.1%; VACV mCherry inh: 1.3%

How did CSCCC(NS(=O)(=O)c1ccc2c(c1)OCCO2)C(=O)NCCc1ccccn1 (configuration not stated) do in these assays?
VACV Venus inh: -13.1%; VACV mCherry inh: -14.3%

Results for COc1ccccc1-c1cccc(-c2nc(C(=O)Nc3nccs3)cc3c2[C@H](CCO)N(C(C)=O)C3)c1 ?
VACV Venus inh: -13.2%; VACV mCherry inh: -20.8%

Results for Cc1ccc(C)c(NC(=O)CCC(=O)N/N=C/c2cc([N+](=O)[O-])ccc2O)c1 ?
VACV Venus inh: -5.8%; VACV mCherry inh: -6.3%

How did Cc1cccc(C)c1N1CCN(C(=O)N2CCOCC2)CC1 do in these assays?
VACV Venus inh: -7.6%; VACV mCherry inh: inactive

What do the screens show for `COC(=O)c1sc(-c2ccccc2)cc1NC(=O)Nc1ccc(F)cc1`?
VACV Venus inh: -17.1%; VACV mCherry inh: -10.7%

How did N#C/C(=C(/O)CCl)c1nnc2n1CCCCC2 do in these assays?
VACV Venus inh: -7.9%; VACV mCherry inh: -13.3%

What do the screens show for `O=C(NCCCN1CCOCC1)c1cc(S(=O)(=O)N2CCOCC2)c(Cl)cc1Cl`?
VACV Venus inh: -1.6%; VACV mCherry inh: inactive

How did O=C(/C=N/O)NCCCn1ccnc1 do in these assays?
VACV Venus inh: -7.8%; VACV mCherry inh: -14.6%

Results for CCOc1cc(Br)ccc1S(=O)(=O)N1CCC(C(N)=O)CC1 ?
VACV Venus inh: -12.1%; VACV mCherry inh: -17.8%

Results for Cc1noc(NS(=O)(=O)c2ccc(NC(=O)C34CC5CC(C3)CC(n3cnc(Cl)n3)(C5)C4)cc2)c1C ?
VACV Venus inh: -5.0%; VACV mCherry inh: -3.0%

How did O=C(NCCc1csc(-c2cccnc2)n1)c1c(F)cccc1F do in these assays?
VACV Venus inh: -14.3%; VACV mCherry inh: -4.9%

Results for COc1ccc(OC)c(NC(=O)CN(c2ccc(OC)c(Cl)c2)S(C)(=O)=O)c1 ?
VACV Venus inh: -13.6%; VACV mCherry inh: -14.0%

Results for Cc1cc2cc3c(cc2nc1SCC(=O)N1c2ccccc2CC1C)OCO3 (configuration not stated) ?
VACV Venus inh: -13.0%

What do the screens show for `O=C(CSc1nccn1-c1ncc(C(F)(F)F)cc1Cl)c1ccc(Cl)cc1`?
VACV Venus inh: -1.9%; VACV mCherry inh: inactive[1.46 µM]

Results for CCOCN(C(=O)CSc1nc2ccccc2[nH]1)c1c(C)cccc1CC ?
VACV Venus inh: -14.2%; VACV mCherry inh: -23.0%

How did COc1ccc(O/C(=N\S(=O)(=O)c2ccccc2)c2ccccc2)cc1 do in these assays?
VACV Venus inh: -7.6%; VACV mCherry inh: 1.5%

How did O=C(c1cn(-c2ccccc2)nc1-c1cc2ccccc2oc1=O)N1CCOCC1 do in these assays?
VACV Venus inh: -10.4%; VACV mCherry inh: inactive

How did COCc1cc(C)nc(OC)c1C(N)=O do in these assays?
VACV Venus inh: -11.7%; VACV mCherry inh: inactive

Results for COc1ccc(N(CC(=O)Nc2ccc3c(c2)OCCO3)S(=O)(=O)c2c(C)noc2C)cc1 ?
VACV Venus inh: -12.5%; VACV mCherry inh: -14.8%

How did CCCc1cc(=O)n2[nH]c(Cc3ccccc3)nc2n1 do in these assays?
VACV Venus inh: 22.7%

Results for CN(C)c1nc(Cl)nc2c1nc(Cl)n2C1CCCCO1 (configuration not stated) ?
VACV Venus inh: -6.1%; VACV mCherry inh: inactive

How did COC(=O)c1ccc(OCC(O)CNCC(c2ccc(OC)cc2)N(C)C)c(OC)c1 (configuration not stated) do in these assays?
VACV Venus inh: -4.1%; VACV mCherry inh: inactive

What do the screens show for `CC1CCN(S(=O)(=O)c2ccc3c(ccc(=O)n3CC(=O)Nc3ccc(C(C)C)cc3)c2)CC1`?
VACV Venus inh: -16.4%; VACV mCherry inh: -29.4%

Results for CS(=O)(=O)c1ccc(Nc2nc(C(N)c3ccccc3Cl)cs2)cc1 (configuration not stated) ?
VACV Venus inh: -13.7%; VACV mCherry inh: -7.5%

How did COc1ccccc1-c1nn2c(-c3cc(-c4ccccc4)n[nH]3)nnc2s1 do in these assays?
VACV Venus inh: -18.9%; VACV mCherry inh: -2.6%

How did CNC(=O)c1c(NC(=O)CS(=O)(=O)c2ccc(F)cc2)sc(C)c1C do in these assays?
VACV Venus inh: -7.9%; VACV mCherry inh: -23.5%

What do the screens show for `Cc1ccc(NC(=O)CN(C)S(=O)(=O)c2ccc(Br)s2)cc1F`?
VACV Venus inh: -10.7%; VACV mCherry inh: inactive

What do the screens show for `CCOC(=O)Nc1ccc2c(COC(=O)CNS(=O)(=O)c3ccc(NC(C)=O)cc3)cc(=O)oc2c1`?
VACV Venus inh: -1.7%; VACV mCherry inh: -13.2%

What do the screens show for `CCn1cc2nc(SCC(=O)Nc3ccc(OC)cc3OC)n(Cc3ccc(OC)cc3)c(=O)c2n1`?
VACV Venus inh: -17.0%; VACV mCherry inh: -28.5%

Results for COc1ccc(CNC(=O)CCc2cn(C)c3ccccc23)cc1 ?
VACV Venus inh: -10.4%; VACV mCherry inh: -13.0%

What do the screens show for `COc1cc(C(=O)COC(=O)c2cnc(C)cn2)ccc1OC(F)F`?
VACV Venus inh: -13.5%; VACV mCherry inh: inactive

What do the screens show for `CC[C@@]1(C(=O)OC)N[C@H](CN(C)C(=O)Nc2ccc(C(F)(F)F)cc2)[C@@H]2C(=O)N(C)C(=O)[C@@H]21`?
VACV Venus inh: -3.9%; VACV mCherry inh: inactive

Results for COc1cc(OC)c(NC(=O)c2nnn(Cc3ccc(C)cc3)c2N)cc1Cl ?
VACV Venus inh: -2.0%; VACV mCherry inh: -16.0%

Results for O=C(CN1C(=O)COc2ccc(S(=O)(=O)N3CCCCCC3)cc21)NCCc1ccccc1 ?
VACV Venus inh: -13.6%; VACV mCherry inh: -11.3%

How did O=C(NNc1ccccc1)C(=O)NNS(=O)(=O)c1ccc([N+](=O)[O-])cc1 do in these assays?
VACV Venus inh: -10.9%; VACV mCherry inh: -11.9%

What do the screens show for `O=C(NCc1ccccc1)c1ccc(CN2CCOCC2)cc1`?
VACV Venus inh: -8.5%

What do the screens show for `CCCN1CCC(=O)NC1=S`?
VACV Venus inh: 9.1%; VACV mCherry inh: -2.9%

How did NC(=O)c1ccc(NC(=O)c2ccccc2S(=O)(=O)c2ccccc2[N+](=O)[O-])cc1 do in these assays?
VACV Venus inh: -7.6%; VACV mCherry inh: -9.2%

What do the screens show for `O=C(COc1ccc(/C=N/NC(=O)C(=O)N2CCCCC2)cc1)Nc1ccccc1Cl`?
VACV Venus inh: -12.7%; VACV mCherry inh: inactive

What do the screens show for `COc1ccc(NC(=O)Cn2c(=O)n(-c3ccc(CC(=O)NCc4ccco4)cc3)c(=O)c3ccccc32)cc1`?
VACV Venus inh: -2.2%[7.34 µM]; VACV mCherry inh: -6.1%[7.34 µM]

Results for CC(C)C[C@@H](CO)N(Cc1ccccc1)S(=O)(=O)N(Cc1ccccc1)[C@H](CO)CC(C)C ?
VACV Venus inh: inconclusive; VACV mCherry inh: -26.9%

How did CC1CC(=O)Nc2ccccc2N1C(=O)CN1CCN(c2ccccc2)CC1 (configuration not stated) do in these assays?
VACV Venus inh: 3.6%; VACV mCherry inh: -9.2%

3 entries drawn at random from those above:
Results for CC(C)C[C@@H](CO)N(Cc1ccccc1)S(=O)(=O)N(Cc1ccccc1)[C@H](CO)CC(C)C ?
VACV Venus inh: inconclusive; VACV mCherry inh: -26.9%

How did O=C(NNc1ccccc1)C(=O)NNS(=O)(=O)c1ccc([N+](=O)[O-])cc1 do in these assays?
VACV Venus inh: -10.9%; VACV mCherry inh: -11.9%

Results for O=C(CN1C(=O)COc2ccc(S(=O)(=O)N3CCCCCC3)cc21)NCCc1ccccc1 ?
VACV Venus inh: -13.6%; VACV mCherry inh: -11.3%

Next section
What do the screens show for `O=C(N/N=C\c1ccc2c(c1)OCO2)c1ccco1`?
VACV Venus inh: -12.0%; VACV mCherry inh: inactive

Results for CC(C)(CNC(=O)CCNC(=O)c1ccc(Br)cc1)N1CCOCC1 ?
VACV Venus inh: -3.8%; VACV mCherry inh: -9.5%

Results for CCn1nnnc1SCC(=O)c1ccc2c(c1)OCCO2 ?
VACV Venus inh: -4.5%; VACV mCherry inh: -9.4%[1.46 µM]

What do the screens show for `COc1ccccc1C(=O)Nc1cccc(NC(=O)c2ccccc2OC)n1`?
VACV Venus inh: -1.2%; VACV mCherry inh: -11.3%

What do the screens show for `CCOc1cc(C2C(C(=O)N3CCCCC3)=C(C)NC3=C2C(=O)CCC3)cc(Br)c1O` (configuration not stated)?
VACV Venus inh: -11.1%; VACV mCherry inh: -10.1%

What do the screens show for `CSc1ccccc1NC(=O)COC(=O)c1ccccc1O`?
VACV Venus inh: -5.5%; VACV mCherry inh: -10.9%

What do the screens show for `CCCCCCCCOC(=O)CCn1[nH]c(=O)c2ccccc2c1=O`?
VACV Venus inh: -13.8%; VACV mCherry inh: -27.1%

How did O=C(NCCO)c1ccc(-c2nnc(Nc3ccc(OC(F)(F)Cl)cc3)c3ccccc23)cc1 do in these assays?
VACV Venus inh: inconclusive; VACV mCherry inh: -23.3%

How did Cc1cn(-c2ccc(Br)cc2)[nH]c1=O do in these assays?
VACV Venus inh: -5.9%; VACV mCherry inh: -7.4%

Results for CSCCC(NC(=O)c1cccc([N+](=O)[O-])c1)C(=O)OCC(=O)N1CCCC1=O (configuration not stated) ?
VACV Venus inh: -15.8%; VACV mCherry inh: inactive

How did N#CCCN(C(=O)c1ccco1)c1ccccc1 do in these assays?
VACV Venus inh: 1.0%

What do the screens show for `Cc1cccc(C)c1-n1nnnc1C(c1cc2ccccc2o1)N1CCN(C/C=C/c2ccccc2)CC1` (configuration not stated)?
VACV Venus inh: -11.0%; VACV mCherry inh: 10.6%

What do the screens show for `O=C(N/N=C/c1ccc2ccccc2c1)c1ccc(COc2ccc3c(c2)CCC3)o1`?
VACV Venus inh: -19.4%; VACV mCherry inh: inconclusive

Assay outcomes from PubChem.
